Screens: PubChem BioAssay, National Center for Advancing Translational Sciences (NCATS)
2A StopGo – High Throughput Screening for Foot and Mouth Disease Virus Antivirals | human cells with a luciferase reporter of 2A StopGo recoding; control for the full effect not named in the record | Potency, µM (top dose mostly 57.9 µM), without a hit: top-dose signal change, negative = less light | actives 1.2% (n = 410,000) | AID 1159524, 2015; active = well fitted falling curve with a large enough effect; inconclusive = small, poorly fitted or top-dose-only effect; inactive = no such curve, though single readings can be large or run the other way; tested in HEK293T cells; further: on the % scale 0 is the no-effect control and ±100 the full control effect; nearly all actives have a fitted effect of over 45% in size; luciferase light after 4 h
RE007 growth inh – qHTS Assay for Inhibitors of the HIV-1 protein Vpr; S. pombe RE007 Vpr strain, BacTiter-Glo ATP luminescence, 24 h; control for the full effect not named in the record; Potency, µM (doses to about 92.2 µM), without a hit: at the highest dose activity change, negative = less growth; actives 0.21% (n = 360,000); active = well fitted falling curve with a large enough effect; inconclusive = small, poorly fitted or top-dose-only effect; inactive = no such curve, though single readings can be large or run the other way;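 further: on the % scale 0 is the no-effect control and ±100 the full control effect; nearly all actives have a fitted effect of over 50% in size; the assay follows cell death caused by Vpr and the record does not say whether a fall means rescue or toxicity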
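Fission yeast strain RE007, carrying one chromosomally integrated HIV-1 vpr copy, was seeded at OD 0.01 in PMG+AL medium with 23 nL pinned compound. After 24 h at 30 °C and 99% humidity, viability was read by BacTiter-Glo luminescence.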
Lassa entry inh – qHTS for Inhibitors of binding or entry into cells for Lassa Virus; AID 540256, 2011; Potency, µM (doses to about 37.9 µM), inactives show at the top dose activity change, negative = inhibition, hits mostly inhibitors; Lassa virus pseudotype entry inhibition, cell reporter; control for the full effect not named in the record; actives 1.2% (n = 300,000); active means well fitted inhibition curve with a large enough effect; inconclusive means small, poorly fitted or top-dose-only effect, or effect the other way; inactive means flat fitted curve, though single readings scatter; tested in HEK293 cells; further: on the % scale 0 is the no-effect control and ±100 the full control effect; nearly all actives have a fitted effect of over 50% in size; luciferase read-out
NS1 function inh – qHTS Assay for Inhibitors of Influenza NS1 Protein Function | S. cerevisiae slowed by influenza A NS1, growth recovery by OD600 | Potency, µM (top dose mostly 46.1 µM), for inactives: at the highest dose activity, positive = more growth | actives 0.4% (n = 270,000) | AID 2326, 2010; active means well fitted rising curve with a large enough effect; inconclusive means small, poorly fitted or top-dose-only effect; inactive means no such curve, though single readings can be large or run the other way; further: nearly all actives have a fitted effect of over 50% in size
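A cell-based growth assay was used: compounds that relieve NS1-induced slow growth of budding yeast raise OD600. Assay medium was yeast nitrogen base with ammonium sulphate and -URA supplement, pH 6.0, with 2% galactose.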
Cruzain Triton – qHTS Assay for Promiscuous and Specific Inhibitors of Cruzain (with detergent); Cruzipain (Trypanosoma cruzi), P25779; purified cruzain, Z-FR-AMC fluorescence, 0.01% Triton; Potency, µM, without a hit: max response, negative = inhibition, usual class: inhibitors; actives 0.43% (n = 200,000);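 further: plate controls were neutral wells for no effect and buffer without enzyme for full effect; nearly all actives have a fitted effect of over 40% in size; top concentration of the series not given in the record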
Target sequence (P25779 123-467 limits assumed): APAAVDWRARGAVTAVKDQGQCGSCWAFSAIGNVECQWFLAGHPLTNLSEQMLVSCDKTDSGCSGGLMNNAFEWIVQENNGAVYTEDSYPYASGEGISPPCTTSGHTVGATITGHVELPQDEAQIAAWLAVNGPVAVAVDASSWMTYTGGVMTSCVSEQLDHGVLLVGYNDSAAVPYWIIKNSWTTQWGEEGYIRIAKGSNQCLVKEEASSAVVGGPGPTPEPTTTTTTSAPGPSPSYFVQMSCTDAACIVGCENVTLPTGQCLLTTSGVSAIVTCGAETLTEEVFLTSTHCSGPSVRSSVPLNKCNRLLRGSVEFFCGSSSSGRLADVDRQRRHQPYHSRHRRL
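Sodium acetate buffer (100 mM, pH 5.5) containing 5 mM DTT and 0.01% Triton X-100 hosted 1.5 nM cruzain and test compound for 15 min at room temperature. Cleavage of 2 uM Z-FR-AMC was then tracked by fluorescence.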
MARV entry inh – qHTS for inhibitors of binding or entry into cells for Marburg Virus; Marburg virus pseudotyped entry inhibition, cell reporter; control for the full effect not named in the record; about a third of the inactives were read at about 46 µM; Potency, µM (titrated, usually from 37.8 µM), inactives show top-dose activity change, negative = inhibition, usual class: inhibitors; actives 1.8% (n = 300,000); AID 540276, 2011; active = well fitted inhibition curve with a large enough effect; inconclusive = small, poorly fitted or top-dose-only effect, or effect the other way; inactive = flat fitted curve, though single readings scatter; tested in HEK293 cells; about a fifth of its hits are not listed in these tables; further: on the % scale 0 is the no-effect control and ±100 the full control effect; luciferase read-out
SARS PLP yeast – qHTS of Yeast-based Assay for SARS-CoV PLP; S. cerevisiae expressing SARS-CoV PLpro, growth rescue; control for the full effect not named in the record; Potency, µM (titrated, usually from 32.9 µM), for inactives: at the top dose activity, positive = growth rescue; actives 0.19% (n = 330,000); AID 485353, 2010; active means well fitted rising curve with a large enough effect; inconclusive means small, poorly fitted or top-dose-only effect; inactive means no such curve, though single readings can be large or run the other way; further: 0% is about no effect; nearly all actives have a fitted effect of over 55% in size; growth read by luminescence after 48 h
Cruzain inh noDet – qHTS Assay for Promiscuous and Specific Inhibitors of Cruzain (without detergent); Cruzipain (Trypanosoma cruzi), P25779; purified cruzain, Z-FR-AMC fluorescence, no detergent; Potency, µM, for inactives: max response, negative = inhibition, usual class: inhibitors; actives 2.3% (n = 200,000);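 further: plate controls were enzyme without inhibitor for no effect and buffer without enzyme for full effect; nearly all actives have a fitted effect of over 40% in size; top concentration of the series not given in the record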
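Detergent-free condition (0.00005% Triton X-100) in acetate buffer pH 5.5 with DTT. 1.5 nM enzyme and compound were pre-mixed 15 min, then 2 uM Z-FR-AMC substrate added; reaction progress from fluorescence change between first and third reads (60 s).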
Numbers without * were called inactive; ? = inconclusive; · = no result given; & = joins results of further samples; [ ] = remark or other dose. Unless noted, the call rests on the fitted dose curve; in most records, active means well fitted curve in the direction sought with a large enough effect; inconclusive means small, poorly fitted or top-dose-only effect, or another doubt; inactive means no such curve, though single readings can be large; an effect the other way counts as inactive or inconclusive. Potency means the concentration at half of the fitted maximal effect.

Results follow in this order: 2A StopGo	RE007 growth inh	Lassa entry inh	NS1 function inh	Cruzain Triton	MARV entry inh	SARS PLP yeast	Cruzain inh noDet
- CCOC(=O)C1=NN(c2ccc([N+](=O)[O-])cc2)CC1C(=O)OC (stereo unspecified)
→ -4%	-2%	-4%	-2%	-10%	11%	?	10%
- Cc1c(N=c2scc(-c3ccccc3)n2CCO)c(=O)n(-c2ccccc2)n1C
→ 28%	-14%	·	7%	·	·	-2%	·
- O=C(Nc1ccc(C(=O)O)cc1)/C(=C\c1ccco1)NC(=O)c1ccco1
→ 0%	6%	14%[46.1 µM]	27%	·	-3%[46.1 µM]	-6%	·
- CC(C)(C)OC(=O)N/N=C/c1c[nH]c2ccccc12
→ 19%	1%	1%	-4%	-3.5%	24%	-3%	0%
- CCN(CC)C1CCN(Cc2c(C(=O)N3CCCCCCC3)nc3ccc(Cl)cn23)C1 (stereo unspecified)
→ -17%	4%	-16%	13%	·	5%	?	·
- CC(C(=O)NCC1CCCCC1)N(C)Cc1ccc(Cl)cc1 (stereo unspecified)
→ -30%	2%	-3%[46.1 µM]	-1%	·	?	2%	·
- O=C(O)c1cc(S(=O)(=O)N2CCCc3ccccc32)ccc1Cl
→ 6%	12%	23%[46.1 µM]	1%	·	12%[46.1 µM]	1%	·
- COCCNC(=O)c1ccc2c(c1)nc(C)n2-c1cc(OC)c(OC)c(OC)c1
→ -5%	4%	1%	6%	7.9%	2%	0%	2%
- COc1ccccc1NC(=O)CN(c1ccc(C23CC4CC(CC(C4)C2)C3)cc1)S(C)(=O)=O
→ -13%	16%	?	?	-3.8%	?	-4%	?
- CCOC(=O)c1ccc(NC(=O)Cn2c3ncccc3c(=O)n2-c2ccc(C)c(C)c2)cc1
→ 0%	·	-20%[46.1 µM]	·	-4.9%	·	·	?
- CCCn1nc(C(=O)Nc2ccc3c(c2)OCCO3)c2ccccc2c1=O
→ 10%	-6%	-20%	·	·	-1%	1%	·
- CC1=C(C)C(=O)OC(C(C)C2CCC3C4CC=C5CC(OC6OC(COC7OC(CO)C(O)C(O)C7O)C(O)C(O)C6O)CC(O)C5(C)C4CCC23C)C1 (stereo unspecified)
→ ?	3%	·	-4%	·	·	6%	·
- O=C(COC(=O)c1cc([N+](=O)[O-])ccc1NCc1ccccc1)NC1CCCCC1
→ 0%	8%	-1%	0%	1.6%	17%	-3%	-22%
- CCCCC1=CC2=C(c3ccco3)C(=O)C(C)(OC(=O)c3ccc(OC)cc3)C(=O)C2=CN1Cc1ccccc1 (stereo unspecified)
→ -28%	-16%	·	20%	·	4%&4%[14.2 µM]	-3%	·
- CN(C)CCNC(=O)Cn1nc(N2CCN(c3ccccc3)CC2)ccc1=O
→ -5%	·	16%[46.1 µM]	·	4.2%	·	·	-3%

Compound profiles, as listed above. Values in the order: 2A StopGo | RE007 growth inh | Lassa entry inh | NS1 function inh | Cruzain Triton | MARV entry inh | SARS PLP yeast | Cruzain inh noDet
Results for `CCOC(=O)C1=NN(c2ccc([N+](=O)[O-])cc2)CC1C(=O)OC` (stereo unspecified) → -4% | -2% | -4% | -2% | -10% | 11% | ? | 10%
Results for `CC1=C(C)C(=O)OC(C(C)C2CCC3C4CC=C5CC(OC6OC(COC7OC(CO)C(O)C(O)C7O)C(O)C(O)C6O)CC(O)C5(C)C4CCC23C)C1` (stereo unspecified) → ? | 3% | · | -4% | · | · | 6% | ·
Results for `CCCn1nc(C(=O)Nc2ccc3c(c2)OCCO3)c2ccccc2c1=O` → 10% | -6% | -20% | · | · | -1% | 1% | ·
Results for `O=C(Nc1ccc(C(=O)O)cc1)/C(=C\c1ccco1)NC(=O)c1ccco1` → 0% | 6% | 14%[46.1 µM] | 27% | · | -3%[46.1 µM] | -6% | ·
Results for `CCCCC1=CC2=C(c3ccco3)C(=O)C(C)(OC(=O)c3ccc(OC)cc3)C(=O)C2=CN1Cc1ccccc1` (stereo unspecified) → -28% | -16% | · | 20% | · | 4%&4%[14.2 µM] | -3% | ·

Continuation.
Results follow in this order: 2A StopGo	RE007 growth inh	Lassa entry inh	NS1 function inh	Cruzain Triton	MARV entry inh	SARS PLP yeast	Cruzain inh noDet
- COc1ccc(C)cc1NC(=O)CSc1nnc(COc2ccc(C)cc2)n1Cc1ccco1
→ ?	17%	?	-96%	-6.0%	?	8%	0%
- O=C(c1ccc(CN2CCOCC2)cc1)N1CCN(c2cccc(Cl)c2)CC1
→ ?	-13%	-18%	-45%	4.8%	?	-5%	-7%
- Cc1cccc2cc(CN(Cc3cccs3)C(=S)NCc3ccco3)c(=O)[nH]c12
→ -17%	8%	?	10%	-6.1%	-33%	5%	-22%
- CCCCNC(=O)O[C@@H]1C[C@@H]2CCN3C(=O)CCC[C@H]([C@H]1CC)[C@H]23
→ -16%	1%	·	-3%	·	·	-5%	·
- O=C(/C=C/c1ccc(Cl)cc1Cl)NCc1ccco1
→ 16%	-12%	6%	-17%	0.4%	?	?	-12%
- CC(=O)c1ccc(NC(=O)CCn2nc(C)c(S(=O)(=O)N3CCC(C)CC3)c2C)cc1
→ -22%	·	8%[46.1 µM]	·	-2.8%	·	·	14%
- Cc1ccc(CSC2=NCCN2S(=O)(=O)c2ccc(F)cc2)cc1
→ -13%	-1%	12%[46.1 µM]	-36%	·	-5%[46.1 µM]	-11%	·
- COCCCN(C(=O)Nc1cccc(Cl)c1)C(C)c1ccccn1 (stereo unspecified)
→ -18%	-9%[3.69 µM]	10%	-1%	-2.5%	-2%	-16%	4%
- CC(C)(C)c1nc2scc(-c3ccc(Br)cc3)c2c(=O)o1
→ -10%	2%	0%	·	·	15%[46.1 µM]	-1%	·
- Cc1ccc(C(=O)N2CCCCC2)cc1S(=O)(=O)N1CCCCCC1
→ 26%	8%	23%[46.1 µM]	2%	·	10%[46.1 µM]	-4%	·
- CC(Sc1nnc(-c2ccco2)n1C)C(=O)Nc1nccs1 (stereo unspecified)
→ -8%	-12%	6%	·	·	6%[46.1 µM]	6%	·
- Cn1nc(C(C)(C)C)cc1NC(=O)Nc1ccc(Cl)cc1
→ 1%	-4%	2%	-5%	·	?	2%	·
- O=[N+]([O-])c1ccc2[nH]cc(S(=O)(=O)N3CCN(c4cccc(Cl)c4)CC3)c2c1
→ -15%	5%	?	7%	·	?	3%	·
- COc1ccc(NC(=S)Nc2cc(C)[nH]n2)cc1Cl
→ 39%[activator]	10%	?	-6%	·	?	1%	·
- CCOc1ccc(C2=C(C=C(C#N)C#N)C(c3ccccc3)c3ccccc3O2)cc1 (stereo unspecified)
→ 0%	3%	-20%	5%	-4.2%	-14%	6%	10µM*
- COc1cccc(/C=N/n2c(C3CCCCC3)n[nH]c2=S)c1O
→ -19%	8%	·	1%	·	·	0%	·
- COc1cc(OC)cc(-n2c(=O)c3ccccc3n(Cc3ccccc3C#N)c2=O)c1
→ -4%	·	-4%[46.1 µM]	·	7.3%	?	·	-9%
- CCOC(=O)C1(C(F)(F)F)N=C(c2cccnc2)OC(N2CCOCC2)=N1 (stereo unspecified)
→ -8%	2%	1%	-2%	2.7%	2%	-8%	5%
- Cc1noc(C)c1COc1ccc(C(=O)OCC(=O)NC23CC4CC(CC(C4)C2)C3)cc1
→ ?	0%	13%	2%	3.9%	-2%	-6%	2%
- Cc1ccc(N(C(=O)CNC(=O)c2ccco2)C(C(=O)NCC2CCCO2)c2ccccc2)c(C)c1 (stereo unspecified)
→ -2%	-4%	-2%	-9%	·	1%[46.1 µM]	4%	·
- CC(=O)N(CCC(Cc1ccccc1)c1ccc2c(c1)OCO2)Cc1ccccc1F (stereo unspecified)
→ -14%	0%	?	-62%	-7.0%	-14%	-19%	0%
- CC(=O)Nc1ccc(C(=O)CN2C(=O)CSC2=O)cc1
→ 1%	12%	9%	9%	·	?	-5%	·
- CCC(CC)C(=O)N=C1SC2CS(=O)(=O)CC2N1CCc1ccc(OC)cc1 (stereo unspecified)
→ ·	-8%	-1%	-24%	-2.1%	3%	1%	25%
- COc1ccc(CCN2C(=O)c3[nH]nc(-c4ccccc4O)c3C2c2cccc(Cl)c2)cc1 (stereo unspecified)
→ -13%	6%	?	22%	1.3%	?	1%	?
- O=S(=O)(c1ccc(F)cc1)N1CCN(c2ncnc3c2cnn3-c2ccccc2)CC1
→ -8%	7%	16%	-5%	-7.6%	1%	11%	-11%
- c1ccc(-c2cc(-c3nnco3)c3ccccc3n2)nc1
→ -16%	5%	14%	·	·	0%[46.1 µM]	28%	·
- COc1ccc(CCNC(=O)c2nnn(CC(=O)Nc3c(C)cc(C)cc3C)c2N)cc1OC
→ -9%	-6%	·	3%	·	·	-7%	·
- Cc1ccc(NC(=O)NC2CCCN2S(=O)(=O)c2ccc(Cl)cc2)cc1 (stereo unspecified)
→ 14%	5%	1%	-6%	-3.3%	-8%	-2%	6%
- Cc1ccc(N2C(=O)CSC2c2cccnc2)c(Cl)c1 (stereo unspecified)
→ -4%	?	-16%[46.1 µM]	-8%	·	?	-7%	·
- COc1cccc2c1OC1(C)CC2/C(=C(\C)O)C(=O)N1 (stereo unspecified)
→ -20%	-8%	-9%[14.3 µM]	6%	3.1%	2%	0%	-3%
- CCOc1ccccc1-n1c(N)c(C(=O)OC)c2nc3ccccc3nc21
→ -8%	·	-3%[46.1 µM]	·	-0.8%	15%[46.1 µM]	·	2%
- O=C1Nc2ccccc2OC1CC(=O)N1CCN(c2cccc(C(F)(F)F)c2)CC1 (stereo unspecified)
→ -12%	-15%	-2%	-50%	-12%	-28%	-9%	-3%
